Source: PubChem BioAssay
eIF4H inh: inhibitors of RNA binding by human eIF4H; Q15056; eIF4H fluorescence polarization binding assay; inhibition, % at 35 µM; 290,000 tested, 0.94% active; AID 2012;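 active means 50% or more with normal probe brightness, or confirmed in later tests; inconclusive means above 50% with abnormal brightness, or retests that disagree; inactive means below 50% or failed in later tests; about a fifth of its hits are not listed in these tables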;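 further: calls also rest on retests at 20 µM and on dose response follow-up; 0% = protein and probe with vehicle and 100% = probe without protein; strong numbers were not always called active; many hits fall short of the cut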
Rce1 inh: blocks yeast Ras-converting enzyme; Q03530; yeast membranes, quenched prenylated peptide cleavage fluorescence; calls only; 290,000 tested, 0.27% active; AID 2563;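 active means fall in fluorescence gain of 50% or more versus controls, with final raw signal at or below 3038400; inconclusive means same 50% fall but final raw signal above 3038400; inactive means fall in fluorescence gain under 50%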;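 further: plate controls were neutral control wells for no effect and wells lacking membranes for full effect; tested at 10 µM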
PABP FP inh: PABP-poly(A) binding inhibition; P11940; PABP-poly(A) RNA binding, fluorescence polarization; inhibition, % at 35 µM; 290,000 tested, 1% active;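 active means 50% or more with normal probe brightness, or confirmed in later tests; inconclusive means above 50% with abnormal brightness, or retests that disagree; inactive means below 50% or failed in later tests; about a fifth of its hits are not listed in these tables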;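 further: calls also rest on retests at 20 µM and on dose response follow-up; controls were probe without protein and protein plus probe with vehicle; some compounds called inactive have numbers as strong as hits; many hits fall short of the cut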
Target sequence (P11940 whole entry, looked up): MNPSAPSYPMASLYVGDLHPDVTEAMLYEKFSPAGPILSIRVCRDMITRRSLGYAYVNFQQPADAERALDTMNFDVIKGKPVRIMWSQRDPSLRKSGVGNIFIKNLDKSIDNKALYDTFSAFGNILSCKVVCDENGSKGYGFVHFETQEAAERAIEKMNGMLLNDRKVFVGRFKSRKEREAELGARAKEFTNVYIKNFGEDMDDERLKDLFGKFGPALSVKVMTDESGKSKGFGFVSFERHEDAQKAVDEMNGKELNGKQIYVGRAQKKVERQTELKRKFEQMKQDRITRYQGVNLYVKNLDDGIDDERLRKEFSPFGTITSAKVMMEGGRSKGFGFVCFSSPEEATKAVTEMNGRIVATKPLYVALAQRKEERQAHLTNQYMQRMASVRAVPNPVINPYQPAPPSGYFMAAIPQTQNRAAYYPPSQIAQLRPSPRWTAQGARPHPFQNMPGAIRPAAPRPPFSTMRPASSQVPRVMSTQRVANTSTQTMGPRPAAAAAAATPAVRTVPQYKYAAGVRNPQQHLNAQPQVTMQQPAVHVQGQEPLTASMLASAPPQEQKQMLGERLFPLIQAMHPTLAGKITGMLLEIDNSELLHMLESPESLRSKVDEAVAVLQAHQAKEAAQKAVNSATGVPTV
MT1-MMP act inh: blocks activation of human MT1-MMP; 360,000 tested, 0.061% active; HT1080 RFP-PRO-GFP cells, GFP/RFP ratio fluorescence, overnight; percent of plate control window, DMSO zero; GFP/RFP ratio change, % at 20 µM;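 active means GFP/RFP ratio change of at least 30% with cell ATP level not reduced by more than half and red fluorescence within 50% of control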; further: strong numbers were not always called active
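Compound: 20 µM single dose, 1% DMSO / System: HT1080 RFP-PRO-GFP cells / Controls: DMSO and RFP-L50D-GFP cell wells / Read-out basis: GFP/RFP fluorescence ratio / Schedule: overnight compound exposure at 37 °C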
CSC inhib: cancer stem cell inhibition; cancer stem cell-like cells viability, luminescence; inhibition, % at 7.5 µM; AID 2717; 300,000 tested, 1.1% active;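 active means mean at 75% or more and at least half the replicates too; inconclusive means mean and replicates disagree; tested in HMLE shEcad cells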;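 further: 0% = median of negative and 100% = median of positive control wells; the first replicate is given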
HIV Env fusion: inhibitors of HIV Env-mediated cell fusion | HeLa-JRFL Env/CEM21 cell fusion, luciferase | inhibition, % at 12.3 µM | 360,000 tested, 1.1% active;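 active means mean replicate inhibition score of at least 50 and every replicate individually at or above 50; inconclusive means only one of the two criteria met; inactive means mean below 50 and not all replicates reaching 50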;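 further: 0% = plate neutral controls and 100% = maraviroc near 300 nM; one replicate is shown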
UUG fidelity: alters start codon recognition fidelity in yeast. S. cerevisiae UUG-firefly luciferase reporter, luminescence/redox ratio. activity score, % at 18.7 µM. 350,000 tested, 0.13% active. AID 602363;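 active means replicate mean at a twofold rise or more, about +100% in these data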;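 further: firefly luciferase made from a UUG start codon reports start codon fidelity; reporter light over untreated wells divided by growth signal over untreated wells; some hits fall short of that in this replicate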
MT1-MMP act inh RFP: second read-out of MT1-MMP act inh, no call of its own (marks repeat the call); RFP signal change, %; measured here: RFP expression control read;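 0 = vehicle wells; hits needed this value within 50% of zero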
The depositor's hits bear a star; i = inactive; ? = inconclusive; . = not tested or not shown; & = joins results of further samples. Hits appear at their usual frequency. Share with any hit: about 3%.

Values run as follows: eIF4H inh	Rce1 inh	PABP FP inh	MT1-MMP act inh	MT1-MMP act inh RFP	CSC inhib	HIV Env fusion	UUG fidelity
[1] C=CCNC(=O)c1onc(CSc2cc(C)cc(C)c2)c1C(=O)O
  8.8	i	6.0	0.9	1.1	33.7	7.1	-8.9
[2] CCCCC(C(=O)NC1CCCC1)N(C(=O)c1snc(C(N)=O)c1N)c1ccc(F)cc1 (stereo not drawn)
  -8.3	i	6.8	0.4	-4.9	.	9.1	-4.0
[3] O=C(C1CCCCN1S(=O)(=O)c1ccc(F)cc1)N1CCN(c2ccccc2F)CC1 (stereo not drawn)
  -5.0	i	-3.9	4.4	-2.2	-17.9	-1.2	1.9
[4] Cc1cc(C)cc(NC(=O)C(=O)NCC2CCCO2)c1 (stereo not drawn)
  0.8	i	-6.4	2.1	5.2	4.8	0.6	.
[5] Cc1ccc(F)c(S(=O)(=O)NC(=O)C2(C)CCN2C(=O)Cc2ccc(-c3ccccc3)cc2)c1 (stereo not drawn)
  .	.	.	0.7	-1.6	.	0.2	-6.2
[6] O=C(c1ccc2c(c1)OCO2)C1CCCN(Cc2ccc3nsnc3c2)C1 (stereo not drawn)
  -14.8	i	-1.9	-1.1	-2.7	-7.2	-3.2	-7.0
[7] COc1ccc(-c2[nH]ncc2CNC(C)CCn2cccn2)c(F)c1 (stereo not drawn)
  -7.5	i	-12.0	-0.1	2.0	-7.3	12.5	-17.7
[8] Cn1c(=O)oc2cc(S(=O)(=O)CCC(=O)Nc3ccccc3)ccc21
  -11.7	i	0.0	-4.1	1.5	-6.0	-8.1	.
[9] Cc1ccc(-n2ncc3c(NCCCN4CCOCC4)ncnc32)c(C)c1
  -8.5	i	14.7	-0.4	0.0	-1.8	20.3	-4.9
[10] CCOc1ccc(CCNC(=O)c2cc3c(C)nccc3[nH]c2=O)cc1OCC
  -4.2	i	-6.6	0.1	-1.0	9.6	-2.2	.
[11] O=C1N=C(c2ccccc2)C(c2ccccc2)N1 (stereo not drawn)
  2.3	i	-6.0	-7.6	-9.6	-2.0	44.0	4.3
[12] CC(C)CC1(C)NC(=O)N(CC(=O)Nc2ccc3c(c2)OCCO3)C1=O (stereo not drawn)
  .	.	.	-1.9	-0.6	-19.0	-7.1	2.5
[13] CC(=O)Nc1cccc([N+](=O)[O-])c1
  -0.4	i	-12.7	-9.8	-0.7	8.6	-7.0	.
[14] O=C(O)c1ccc(CNCc2ccccc2Cl)cc1
  -4.3	i	12.0	4.8	7.2	-3.0	.	-11.8
[15] Cc1cc2nc(-c3ccc(NC(=O)c4cccnc4)cc3)oc2cc1C
  6.1	i	-7.4	4.9	-3.2	-10.7	.	.
[16] O=C(/C=C/Nc1ccc(S(=O)(=O)Nc2ncccn2)cc1)c1cccs1
  -2.2	i	1.8	-15.8	-3.7	-8.0	5.6	-15.9
[17] O=C(Nc1cccc(-c2cn3cccnc3n2)c1)c1ccc2c(c1)OCO2
  22.4	i	8.3	10.7	0.5	-4.8	-50.8	-15.1
[18] Cc1ccc2nc(NC(=O)CNS(=O)(=O)c3ccc(Br)s3)sc2c1
  -10.1	i	-1.7	3.3	1.6	-1.9	-3.7	-8.7
[19] O=C(N/N=C/c1cc([N+](=O)[O-])ccc1O)C1C2CCCCC21 (stereo not drawn)
  12.5	.	10.7	.	.	8.8	.	.
[20] COc1ccc(C(=O)/C=C(/C)N(C)C)cc1
  3.3	i	-0.1	-3.4	-3.6	9.9	.	-2.1
[21] CCOc1ccc(/C=N/NC(=O)CN2CCSCC2)cc1
  3.4	i	-6.9	1.3	2.0	-0.4	-12.7	-8.7
[22] O=C1CN(C(=O)COC(=O)CCSc2ccccc2Cl)c2ccccc2N1
  -4.8	i	-0.3	3.7	3.2	-3.4	.	15.3
[23] Cc1cc(C)c(CN2CCC(n3nccc3NC(=O)CCOc3ccccc3)CC2)cc1C
  -0.6	i	-4.6	2.3	-6.2	6.9	1.9	-3.1
[24] CC(NC(=O)COC(=O)C1CCN(S(=O)(=O)c2ccccc2C(F)(F)F)CC1)c1ccccc1 (stereo not drawn)
  -2.0	i	-6.5	4.1	7.9	-7.8	-12.9	2.3
[25] Cc1ccc(S(=O)(=O)N/N=C/c2ccc(C(=O)O)cc2)cc1
  -11.8	i	-1.5	-2.3	-1.9	7.3	.	-1.7
[26] COC(=O)CCC(=O)OC1(C)C(=O)C2=CN(C3CCCC3)C(c3ccc(OC)cc3)=CC2=C(Br)C1=O (stereo not drawn)
  44.4	i	38.3	17.1	18.2	-2.9	17.2	2.2
[27] COc1ccc(C(=O)Nc2cc([N+](=O)[O-])ccc2N2CCCC2)cc1
  -1.2	.	-21.3	4.7	0.8	-0.4	10.0	-3.4
[28] CNC(=O)c1cccc(NC(=O)C(C)c2ccc3cc(OC)ccc3c2)c1 (stereo not drawn)
  3.0	i	-4.9	5.1	-0.8	-0.4	-15.5	-2.6
[29] Cc1cnc(C)c(Nc2nc(C(N)Cc3ccc(C(F)(F)F)cc3)cs2)n1 (stereo not drawn)
  .	.	.	-4.3	-4.5	.	106.4*	-9.6
[30] CCOCCCNC(=O)C(NC(=O)c1ccccc1O)c1ccc(C)cc1 (stereo not drawn)
  10.3	i	?	-5.1	-0.8	.	3.9	.

Complete entries, looked up by structure. Screens in order: eIF4H inh	Rce1 inh	PABP FP inh	MT1-MMP act inh	MT1-MMP act inh RFP	CSC inhib	HIV Env fusion	UUG fidelity
`CC(NC(=O)COC(=O)C1CCN(S(=O)(=O)c2ccccc2C(F)(F)F)CC1)c1ccccc1` (stereo not drawn) reads -2.0	i	-6.5	4.1	7.9	-7.8	-12.9	2.3
`O=C(Nc1cccc(-c2cn3cccnc3n2)c1)c1ccc2c(c1)OCO2` reads 22.4	i	8.3	10.7	0.5	-4.8	-50.8	-15.1
`Cc1ccc2nc(NC(=O)CNS(=O)(=O)c3ccc(Br)s3)sc2c1` reads -10.1	i	-1.7	3.3	1.6	-1.9	-3.7	-8.7

Continuation.
Values run as follows: eIF4H inh	Rce1 inh	PABP FP inh	MT1-MMP act inh	MT1-MMP act inh RFP	CSC inhib	HIV Env fusion	UUG fidelity
[31] COc1ccc(CCNc2ccncn2)cc1
  -1.2	i	6.7	7.1	-11.4	-19.7	56.0*	-13.2
[32] Cc1cccc(CC(=O)N2CCCC2)c1
  -12.9	i	-5.6	-1.6	5.0	-14.6	-32.8	0.8
[33] CCOC(=O)C1=C(C)NC(=O)NC1c1ccco1 (stereo not drawn)
  29.2	.	21.3	-0.4	3.7	-7.6	.	.
[34] CC1CCC(NC(=O)CCNS(=O)(=O)c2ccc3c(c2)CCC(=O)N3)CC1 (stereo not drawn)
  .	i	.	-3.3	-2.8	18.2	3.0	-14.5
[35] CCCCSc1nnc2n(CCc3ccccc3)c(=O)c3c4c(sc3n12)COC(C)(C)C4
  0.7	i	15.8	-1.2	3.3	2.7	.	-17.1
[36] Cc1ccccc1NC(=O)N1c2ccccc2CC1C (stereo not drawn)
  3.6	i	-5.4	0.3	-0.8	10.1	-48.3	.
[37] O=C1C=C(c2ccccc2)CCC1
  5.7	i	12.0	-5.4	1.1	19.4	.	-17.8
[38] CC1CCc2sc(C(=O)N/N=C/c3ccc(O)cc3)cc2C1 (stereo not drawn)
  4.0	.	6.2	-1.1	1.8	45.6	-16.7	-6.6
[39] Cn1c(N)c(C(=O)COC(=O)c2cc(C3CC3)nc3ccccc23)c(=O)n(Cc2ccccc2)c1=O
  7.0	i	-9.9	-13.4	4.2	9.0	17.9	-23.3
[40] CC1(C)CC(CCN)(Cc2ccccc2Cl)CCO1 (stereo not drawn)
  -5.7	i	2.0	3.5	3.3	8.6	6.5	-19.2
[41] CC(OC(=O)C1CC1)C(=O)Nc1ccc([N+](=O)[O-])cc1Cl (stereo not drawn)
  -5.1	i	-19.6	0.1	1.5	.	-0.2	.
[42] O=C(CSc1nnnn1-c1ccccc1)Nc1ccccc1
  -14.9	i	-2.3	-1.1	-4.6	-18.9	5.2	-9.9
[43] CCOc1nc(-c2ccccc2Cl)nc2ccccc12
  -0.3	i	-1.4	-2.2	1.3	-3.7	14.8	6.8
[44] CC1CC(C)CN(S(=O)(=O)c2ccc(NC(=O)C3CC(=O)N(Cc4ccccc4)C3)cc2)C1 (stereo not drawn)
  1.8	i	2.3	0.5	0.5	15.4	.	2.7
[45] Cn1c(=O)c([N+](=O)[O-])c(NCCCn2ccnc2)c2ccccc21
  -3.1	i	-1.6	2.5	5.6	-11.1	7.8	.
[46] COc1cc(C(=O)Nc2cccc(-c3nnc(-c4ccco4)o3)c2)ccc1OC(C)=O
  -0.9	i	10.9	5.9	-0.3	12.3	2.3	1.4
[47] CCn1c(=O)c2ccccc2n(CC(=O)NCCC2=CCCCC2)c1=O
  -7.3	i	-9.6	1.2	-0.4	1.2	13.0	-18.8
[48] Cc1ccc(S(=O)(=O)NC(c2ccccc2)C(C)C(=O)n2nc(C)cc2C)cc1 (stereo not drawn)
  -10.5	i	-12.5	-3.8	-1.6	-6.0	.	-12.5
[49] CC(C)CNC(=O)C1CCCN(S(=O)(=O)c2ccc(-n3cnnn3)cc2)C1 (stereo not drawn)
  -0.2	i	-4.6	-4.8	-4.7	.	.	-6.3
[50] O=C(NCc1ccco1)C(c1ccco1)N(Cc1cccs1)C(=O)Cn1nnc2ccccc21 (stereo not drawn)
  0.9	i	-5.2	-0.4	-0.3	-8.1	.	-2.9
[51] Nc1c(Br)cc(Br)cc1CNC1CCC(O)CC1 (stereo not drawn)
  -7.4	i	1.0	3.2&6.6	0.7&2.3	-0.2&-13.7	?	-6.9&-8.1
[52] CCOc1ccc(N2C(=O)C3C(C2=O)C3(c2ccccc2)c2ccccc2)cc1 (stereo not drawn)
  -4.7	i	-3.7	-2.6	-6.5	45.6	29.1	-0.4
[53] FC(F)(F)c1ccccc1Cc1c(-c2ccccc2)nc2ccc(Cl)cn12
  .	.	.	-1.9	-5.2	.	1.6	-10.7
[54] COc1ccc(NC(=O)CN2CCC(C(=O)c3ccc(F)cc3)CC2)c(OC)c1
  -10.2	i	5.3	2.1	-4.0	36.0	7.8	14.8
[55] Cc1cccc(-n2c(-c3ccco3)nc3nc4ccccc4nc32)c1
  9.3	i	-9.2	.	.	-15.0	.	.
[56] O=C(CCc1nc2ccccc2c(=O)[nH]1)Nc1cc(Cl)ccc1N1CCCC1
  .	.	.	-0.2	-2.6	.	-49.2	-13.5
[57] COc1ccc(/C=C/C(=O)Nc2cccc(N3CCOCC3)c2)cc1OC
  -10.8	i	3.5	4.2	3.1	-12.3	2.3	.
[58] CCN(CC(=O)NCc1cccs1)S(=O)(=O)c1cc(NC(C)=O)ccc1OC
  .	.	.	0.5	-3.5	-19.8	9.2	-4.9
[59] COc1ccc2c(c1)-c1nc(/N=C/c3cccc(OC)c3O)sc1CC2
  -2.1	i	2.9	10.8	3.0	-17.0	-22.0	3.4
